Rce1 inhib: inhibitors of yeast Ras-converting enzyme; Q03530; yeast membranes, quenched prenylated peptide cleavage fluorescence; calls only; 290,000 tested, 0.27% active; AID 2563;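 active means fall in fluorescence gain of 50% or more versus controls, with final raw signal at or below 3038400; inconclusive means same 50% fall but final raw signal above 3038400; inactive means fall in fluorescence gain under 50%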;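 further: plate controls were neutral control wells for no effect and wells lacking membranes for full effect; tested at 10 µM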
CSC inhib: blocks cancer stem cells. cancer stem cell-like cells viability, luminescence. inhibition, % at 7.5 µM. 300,000 tested, 1.1% active. AID 2717;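 active means mean at 75% or more and at least half the replicates too; inconclusive means mean and replicates disagree; tested in HMLE shEcad cells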;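 further: 0% = median of negative and 100% = median of positive control wells; the first replicate is given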
UUG fidelity: modulators of start codon recognition fidelity in yeast; S. cerevisiae UUG-firefly luciferase reporter, luminescence/redox ratio; activity score, % at 18.7 µM; 350,000 tested, 0.13% active; AID 602363;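 active means replicate mean at a twofold rise or more, about +100% in these data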;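 further: firefly luciferase made from a UUG start codon reports start codon fidelity; reporter light over untreated wells divided by growth signal over untreated wells; some hits fall short of that in this replicate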
eIF4H inh: inhibitors of RNA binding by human eIF4H | eIF4H fluorescence polarization binding assay | 290,000 tested, 0.94% active | inhibition, % at 35 µM | Q15056;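 active means 50% or more with normal probe brightness, or confirmed in later tests; inconclusive means above 50% with abnormal brightness, or retests that disagree; inactive means below 50% or failed in later tests; about a fifth of its hits are not listed in these tables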;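 further: calls also rest on retests at 20 µM and on dose response follow-up; 0% = protein and probe with vehicle and 100% = probe without protein; strong numbers were not always called active; many hits fall short of the cut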
Env fusion inh: blocks HIV Env-driven cell-cell fusion | inhibition, % at 12.3 µM | 360,000 tested, 1.1% active | HeLa-JRFL Env/CEM21 cell fusion, luciferase;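 active means mean replicate inhibition score of at least 50 and every replicate individually at or above 50; inconclusive means only one of the two criteria met; inactive means mean below 50 and not all replicates reaching 50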;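 further: 0% = plate neutral controls and 100% = maraviroc near 300 nM; one replicate is shown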
PABP FP inh: PABP-poly(A) binding inhibition; PABP-poly(A) RNA binding, fluorescence polarization; inhibition, % at 35 µM; 290,000 tested, 1% active;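 active means 50% or more with normal probe brightness, or confirmed in later tests; inconclusive means above 50% with abnormal brightness, or retests that disagree; inactive means below 50% or failed in later tests; about a fifth of its hits are not listed in these tables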;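 further: calls also rest on retests at 20 µM and on dose response follow-up; controls were probe without protein and protein plus probe with vehicle; some compounds called inactive have numbers as strong as hits; many hits fall short of the cut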
Target sequence (P11940 whole entry, looked up): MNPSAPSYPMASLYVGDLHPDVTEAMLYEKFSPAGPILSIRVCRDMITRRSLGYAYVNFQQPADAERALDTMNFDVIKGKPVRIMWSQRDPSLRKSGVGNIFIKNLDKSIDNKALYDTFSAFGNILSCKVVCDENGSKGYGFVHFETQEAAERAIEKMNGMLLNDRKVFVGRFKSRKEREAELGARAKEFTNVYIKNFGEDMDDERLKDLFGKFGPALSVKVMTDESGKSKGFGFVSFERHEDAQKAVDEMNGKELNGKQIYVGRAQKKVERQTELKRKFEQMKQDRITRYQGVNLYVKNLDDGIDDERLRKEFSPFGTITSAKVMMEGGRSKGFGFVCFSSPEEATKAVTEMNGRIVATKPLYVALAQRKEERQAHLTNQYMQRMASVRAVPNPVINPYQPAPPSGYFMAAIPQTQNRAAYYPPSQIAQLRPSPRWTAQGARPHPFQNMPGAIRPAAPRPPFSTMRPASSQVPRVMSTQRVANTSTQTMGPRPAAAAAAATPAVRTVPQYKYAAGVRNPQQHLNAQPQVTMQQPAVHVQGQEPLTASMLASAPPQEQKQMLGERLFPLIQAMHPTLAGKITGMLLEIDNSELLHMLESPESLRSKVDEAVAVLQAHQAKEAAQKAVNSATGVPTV
MT1-MMP act inh: MT1-MMP (human) activation inhibition | GFP/RFP ratio change, % at 20 µM | HT1080 RFP-PRO-GFP cells, GFP/RFP ratio fluorescence, overnight; percent of plate control window, DMSO zero | 360,000 tested, 0.061% active | P50281 | AID 651647;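 active means GFP/RFP ratio change of at least 30% with cell ATP level not reduced by more than half and red fluorescence within 50% of control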; further: strong numbers were not always called active
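Material – HT1080 RFP-PRO-GFP cells · Control set – DMSO wells and RFP-L50D-GFP cells · Incubation – overnight cell settling, then overnight compound exposure, 37 °C, 5% CO2 · Compound dosing – single-point 20 µM compound, 1% DMSO · Read-out – GFP/RFP fluorescence ratio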
MT1-MMP act inh RFP: recorded beside MT1-MMP act inh, whose call it bears; RFP signal change, %; measured here: RFP expression control read;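 0 = vehicle wells; hits needed this value within 50% of zero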
* hit, by the source's call; i = inactive; ? = inconclusive; · = no result given.

SMILES	Rce1 inhib	CSC inhib	UUG fidelity	eIF4H inh	Env fusion inh	PABP FP inh	MT1-MMP act inh	MT1-MMP act inh RFP
CC(NC(=O)CNC(=O)c1ccco1)c1ccccc1 (stereo unspecified)	i	-0.7	-23.7	1.6	-4.8	-3.3	-2.4	2.7
CCOC(=O)c1cn(CC)c2c(ccc3ccccc32)c1=O	i	-3.8	-6.6	-8.4	-19.9	6.2	0.3	-5.8
S=c1[nH]cnc2scc(-c3ccc(Cl)cc3)c12	i	47.4	-19.3	-0.7	39.8	-5.9	5.7	-7.2
O=C(C1=NNCC1c1ccc(Cl)cc1)C1CO1 (stereo unspecified)	i	·	-13.7	-5.5	-13.2	-10.2	-2.1	-1.2
OC[C@@H]1CN(Cc2ccco2)C[C@H](n2cnc3c(Nc4ccccc4)ncnc32)O1	·	·	-12.4	·	6.9	·	0.1	2.9
O=C(CN1C(=O)CCSc2ccccc21)Nc1ccc(F)cc1	i	·	0.3	-5.5	-64.4	-7.4	2.0	6.4
COc1ccc(C)cc1NC(=O)CN1CCN(S(=O)(=O)c2ccc3ccccc3c2)CC1	·	-5.4	1.3	·	·	·	-2.4	-2.3
O=C(Cc1ccc(S(=O)(=O)N2CCOCC2)s1)Nc1ccccc1N1CCCC1	i	-0.2	-12.8	3.5	12.4	10.3	-6.4	-0.2
CCN(C(=O)CN1C(=O)CN(C)C1=O)c1cccc2ccccc12	·	-18.8	-23.6	·	13.7	·	-0.5	-1.6
Cc1ccc(N/C=C(\C2OC(=O)c3ccccc32)[N+](=O)[O-])c(C)c1 (stereo unspecified)	i	·	·	-3.7	19.4	26.7	4.5	4.3
CCOC(=O)C1=C(CS(=O)(=O)c2ccccc2)NC(=O)NC1c1ccccc1 (stereo unspecified)	i	·	-14.7	2.1	-76.2	-0.6	1.1	6.1
CC1(C)Cc2nc(N3CCCC3)c(C#N)cc2CO1	i	9.8	·	-1.7	13.4	4.9	-1.6	1.2
COc1ccc(C)cc1NC(=O)CNc1ccccc1CN(C)C1CCCCC1	i	-8.3	7.4	9.1	19.7	-2.2	1.0	1.8
CC(C)Nc1nnc(SCC(=O)NCc2ccc3c(c2)OCO3)s1	i	-9.6	·	-12.3	-0.5	6.3	-1.1	2.8
CC(C)NC(=O)COC(=O)Cn1[nH]c(=O)c2ccccc2c1=O	i	-10.4	·	-9.4	5.9	2.8	-0.4	3.6

Quoted from the listing.
`OC[C@@H]1CN(Cc2ccco2)C[C@H](n2cnc3c(Nc4ccccc4)ncnc32)O1` @ MT1-MMP act inh RFP = 2.9
`O=C(C1=NNCC1c1ccc(Cl)cc1)C1CO1` (stereo unspecified) @ MT1-MMP act inh = -2.1
`CC1(C)Cc2nc(N3CCCC3)c(C#N)cc2CO1` @ eIF4H inh = -1.7

The listing continues.
SMILES	Rce1 inhib	CSC inhib	UUG fidelity	eIF4H inh	Env fusion inh	PABP FP inh	MT1-MMP act inh	MT1-MMP act inh RFP
O=C(Nc1ccc(F)c(Cl)c1)c1csc(COCCO)n1	·	·	-16.9	·	-13.5	·	6.9	1.2
Cc1nnc(NC(=O)CSc2nnc(CCNC(=O)c3ccccc3F)n2C)s1	i	-0.6	-18.0	4.2	-2.7	1.0	-1.6	3.3
COc1ccc(-n2nc3c(c2NC(=O)c2ccc(N4C(=O)CCC4=O)cc2)CSC3)cc1	i	8.5	·	4.3	7.4	-5.9	-2.0	-0.8
CC(C)n1c(O)c(N=NC(=O)CNC(=O)c2cccnc2)c2ccccc21	i	4.4	12.3	-4.3	2.5	7.2	-0.6	-0.1
COc1cccc(C2=CC(=O)C[C@H](c3ccc(Cl)cc3)C2)c1OC	·	62.7	-17.9	·	?	·	11.9	-4.8
CC(=O)Nc1ccc(C(=O)Nc2ccc(S(=O)(=O)Nc3nccc(C)n3)cc2)cc1	i	-5.9	-10.7	-7.9	-9.5	-7.2	-2.7	1.5
Brc1cccc(CNn2cnnc2)c1	i	-14.0	-27.2	·	-23.2	·	-0.5	1.3
O=C(CC1CCCC1)N1CCCC(Nc2ccc(F)cc2)C1 (stereo unspecified)	·	-1.4	-8.4	-5.9	13.7	-2.5	2.2	2.0
CC(C)(C)OC(=O)N1CCCC1C(=O)NCCc1ccccc1 (stereo unspecified)	i	-8.1	-27.5	5.8	·	51.6*	6.0	0.3
CC(C)c1ccc(/C=C/C(=O)NC2CCCCC2)cc1	i	13.2	-4.5	-2.6	-6.4	13.9	2.8	6.0
Cn1c(SCC(=O)O)nnc1-c1ccc2ncccc2c1	i	0.7	·	-6.1	-2.6	-0.6	·	·
Clc1ccc(-c2cc3ccccc3nc2N2CCOCC2)cc1	i	-16.7	·	-2.5	11.7	1.7	3.2	0.7
CN(CC(=O)Nc1ccc(F)cc1)C(=O)COC(=O)c1ccccc1	i	-5.0	-14.9	·	-12.2	·	-3.4	1.2
O=S(=O)(NCC(c1cccnc1)N1CCN(Cc2ccccc2)CC1)c1ccc(F)cc1 (stereo unspecified)	i	3.9	-1.9	-13.7	-2.7	-12.0	-0.9	-0.1
CC(C)CCN1CCN(Cc2ccc(C(F)(F)F)cc2)CC1CCO (stereo unspecified)	i	41.8	·	-2.8	19.4	-11.7	-2.6	0.6
S=c1[nH]c(-c2ccccc2)cs1	i	2.0	·	-10.7	-26.1	-2.8	5.5	-4.8
O=[N+]([O-])c1cc(C(F)(F)F)ccc1N1CCCNCC1	i	17.1	-3.3	-9.8	-1.9	2.8	-0.4	5.0
CCN1CCN(c2c(Cl)cccc2NC(=O)c2ccc3nsnc3c2)CC1	i	-7.0	6.8	-3.8	5.8	-4.5	3.9	1.2
CN1CCC(=NNC(=O)CN(c2cccc([N+](=O)[O-])c2)S(=O)(=O)c2ccccc2)CC1	i	·	-6.6	8.9	-2.7	-4.3	0.7	2.1
CN(C(=O)c1ccc(Br)cc1)C1CCS(=O)(=O)C1 (stereo unspecified)	i	-1.6	2.7	·	-6.2	·	-3.5	-0.4
Cc1cc(OC(=O)c2cc(Cl)ccc2Cl)c([N+](=O)[O-])c(=O)[nH]1	i	-18.7	1.2	-11.8	7.4	-2.6	0.7	3.2
N/C(=N\c1nc2c(c(=O)[nH]1)CCCC2)Nc1ccc(Oc2ccccc2)cc1	i	5.2	-28.9	-2.7	·	-4.9	7.3	-8.9
COc1cc(/C=C(\C#N)C(=O)Nc2cccc3ncccc23)ccc1O	i	0.2	·	19.9	·	8.3	·	·
CN(CC(=O)Nc1ccc(Cl)c(C(F)(F)F)c1)C(=O)c1cccnc1Sc1ccccc1	i	-3.3	6.6	-13.7	12.2	5.2	-4.4	0.2
NS(=O)(=O)c1ccc(CNC(=O)c2cccc(S(=O)(=O)N3CCc4ccccc43)c2)cc1	·	-17.0	-0.1	·	-1.7	·	-3.9	-17.9
Cc1ccccc1C(=O)Nc1cccc(-c2ccc3nncn3n2)c1	i	7.3	9.8	12.1	-5.5	2.0	19.5	6.8
CC(C)Cn1c(C(C)C)nc([N+](=O)[O-])c1Sc1ccc(Cl)cn1	i	18.6	-20.3	-1.4	-74.7	0.0	2.9	-2.6
CCn1c(=O)n(CC)c2cc(S(=O)(=O)Nc3ccccc3C)c(C)cc21	i	·	-4.6	4.9	-36.2	-7.0	5.5	-1.3
Cc1cccc(NC(=O)/C(C#N)=C\c2cn(CC(=O)O)c3ccccc23)c1	i	-0.6	-0.4	-5.2	-5.9	34.7	-4.3	-0.8
COc1ccccc1Oc1ccc2c(c1)C(=O)N(c1ccc(Br)c3cccnc13)C2=O	i	29.3	-12.6	-10.4	-64.9	-8.5	0.5	-5.0
O=C(CSc1nc(Nc2ccccc2)nc(N2CCOCC2)n1)Nc1ccc2c(c1)OCCO2	i	-5.6	-30.8	8.1	·	13.8	-6.0	-4.1
O=C(O)c1ccc(-c2noc(-c3cccc(F)c3)n2)cc1	i	11.3	-23.9	·	-36.5	·	-1.8	1.6
CC(Oc1ccccc1)C(=O)N1CCC2(CC1)Oc1ccc(F)cc1C(=O)C21CC(c2ccc(Cl)cc2)=NO1 (stereo unspecified)	i	13.3	-13.4	·	-6.2	·	-1.2	-2.6
CC(=O)c1ccc2c(c1)N(Cc1ccccc1Cl)C(=O)C(C)S2 (stereo unspecified)	·	·	-28.2	·	-1.5	·	1.3	0.3
CN(C)S(=O)(=O)c1ccc(C(=O)OCC(=O)Nc2ccccc2OC(F)F)cc1	i	-12.4	-6.0	5.1	-49.4	11.1	0.1	1.9
Cc1cnc(NC(=O)c2nn(C)cc2[N+](=O)[O-])s1	i	·	·	-9.3	-105.5	-3.1	-13.0	-13.2
O=C(CSc1ccc(-c2nc3ccccc3[nH]2)cn1)N1CCN(C(=O)c2ccco2)CC1	i	-0.1	3.8	13.0	-33.6	6.5	8.0	-1.7
CN(C)c1ccc(CNC(=O)c2ccc(CNc3c(N4CCCCC4)c(=O)c3=O)cc2)cc1	i	9.2	-5.6	-8.5	6.4	3.5	-4.7	-1.3
COc1ccc(C(=O)Oc2c(CN3CCOCC3)cc(Cl)c3cccnc23)cc1OC	i	0.7	·	·	-0.8	·	·	·
Nc1c(C(=O)N2CCCC2)sc2nc(-c3ccccc3)ccc12	i	1.9	·	-5.2	-102.6	4.1	0.8	0.8
C[C@@H](C[C@@H](O)[C@H](O)C(C)(C)O)[C@@H]1CC[C@]2(C)C3=CC[C@H]4C(C)(C)C(=O)CC[C@]4(C)[C@H]3CC[C@@]12C	i	-5.8	-19.6	-6.4	30.9	7.9	-0.7	-18.0
COc1cc(C(C)=O)ccc1Oc1ncnc2c1cnn2-c1ccccc1	i	-7.3	-0.9	3.4	26.6	18.1	8.8	-17.8
CCC(C)Nc1nc(SC(C(C)=O)C(C)=O)nc(N(C)C)n1 (stereo unspecified)	i	-1.9	-9.7	3.4	·	2.5	3.6	3.9
CCOC(=O)C1=C(C)NC(=O)NC1c1ccc2c(c1)OCCO2 (stereo unspecified)	i	12.6	9.2	-13.5	-0.6	-7.4	1.9	0.5
COc1cc(C#Cc2ccc3cc(CCCO)oc(=O)c3c2)cc(OC)c1	·	11.5	-21.9	·	-321.4	·	9.2	-8.3
O=C(O)c1ccc(CN2C(=O)CSC2=S)cc1	i	22.8	-9.6	4.0	7.6	10.8	30.5	52.5
Cc1ccc(N2C(=O)C3NN=C(C(=O)OCc4ccccc4)C3C2=O)c(C)c1 (stereo unspecified)	i	-4.2	-4.9	1.2	-5.6	6.0	0.9	2.1
CCOC(=O)[C@H]1[C@H]2COc3ccc(Cl)cc3[C@@H]2N2C(=O)c3cc(C)ccc3NC(=O)[C@@]12C	·	-10.6	-10.3	·	-51.4	·	-8.8	-5.9
COC(=O)C1(C)NC(c2ccc(O)cc2)C2C(=O)N(c3ccc(C)cc3)C(=O)C21 (stereo unspecified)	i	-22.4	-15.5	1.4	4.4	4.1	0.8	6.0
Cn1cc(S(=O)(=O)CC(=O)Nc2ccc3c(c2)OCCO3)c2ccccc21	i	-4.9	1.6	3.1	·	-4.6	1.1	-1.4
COC(=O)c1ccc(O)c(Sc2cc(C(=O)OC)ccc2O)c1	i	33.2	-6.0	1.4	·	-8.4	5.0	11.5
CCCCN1C(=O)C(CC(=O)NCC2CCCCC2)CC(C(=O)N(CC)CC)=C1C (stereo unspecified)	·	·	-15.2	·	2.9	·	-0.8	3.3
COC(=O)c1c(-c2ccccc2)csc1NC(=O)c1ccco1	i	-3.7	-19.4	-0.3	·	-1.5	0.0	-0.8

From PubChem

Only part of the results is shown (hit frequency here may not be typical).
